MARV entry inh: Marburg virus entry inhibition; Marburg virus pseudotyped entry inhibition, cell reporter; control for the full effect not named in the record; about a third of the inactives were read at about 46 µM; Potency, µM (highest dose often 37.8 µM), for the others: at the highest dose activity change, negative = inhibition, most hits filed as inhibitors; actives 1.8% (n = 300,000); AID 540276; active = well fitted inhibition curve with a large enough effect; inconclusive = small, poorly fitted or top-dose-only effect, or effect the other way; inactive = flat fitted curve, though single readings scatter; tested in HEK293 cells; about a fifth of its hits are not listed in these tables; further: on the % scale 0 is the no-effect control and ±100 the full control effect; luciferase read-out
Cruzain Triton: inhibitors of Trypanosoma cruzi cruzain with detergent | P25779 | purified cruzain, Z-FR-AMC fluorescence, 0.01% Triton | Potency, µM, without a hit: max response, negative = inhibition, usual class: inhibitors | actives 0.43% (n = 200,000);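 further: plate controls were neutral wells for no effect and buffer without enzyme for full effect; nearly all actives have a fitted effect of over 40% in size; top concentration of the series not given in the record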
Target sequence (P25779 123-467 limits assumed): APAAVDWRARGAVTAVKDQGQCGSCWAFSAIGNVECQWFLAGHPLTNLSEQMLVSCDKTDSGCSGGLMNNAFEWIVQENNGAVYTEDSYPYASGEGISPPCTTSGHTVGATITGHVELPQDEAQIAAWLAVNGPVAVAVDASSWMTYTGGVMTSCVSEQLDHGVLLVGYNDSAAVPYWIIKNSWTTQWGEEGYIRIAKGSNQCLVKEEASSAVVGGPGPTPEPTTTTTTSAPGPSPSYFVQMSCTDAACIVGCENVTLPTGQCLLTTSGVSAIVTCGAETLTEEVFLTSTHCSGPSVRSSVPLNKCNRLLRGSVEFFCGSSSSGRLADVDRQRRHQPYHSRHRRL
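Purified cruzain (1.5 nM final) was preincubated with compounds for 15 min at room temperature in 100 mM sodium acetate pH 5.5, 5 mM DTT, 0.01% Triton X-100. Reaction started with 2 uM Z-FR-AMC; AMC fluorescence change over 60 s gave activity.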
NS1 function inh: inhibitors of influenza NS1 protein function; S. cerevisiae slowed by influenza A NS1, growth recovery by OD600; Potency, µM (titrated, usually from 46.1 µM), for inactives: top-dose activity, positive = more growth; actives 0.4% (n = 270,000); active means well fitted rising curve with a large enough effect; inconclusive means small, poorly fitted or top-dose-only effect; inactive means no such curve, though single readings can be large or run the other way; further: nearly all actives have a fitted effect of over 50% in size
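In this qHTS, NS1 from influenza A is expressed in budding yeast, where it slows growth. Cells are switched from glucose to 2% galactose medium (pH 6.0, -URA), treated with compound, and growth recovery is read at OD600.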
SARS PLpro yeast: blocks SARS-CoV papain-like protease in a yeast assay; actives 0.19% (n = 330,000); S. cerevisiae expressing SARS-CoV PLpro, growth rescue; control for the full effect not named in the record; Potency, µM (series often up to 32.9 µM), for the others: at the highest dose activity, positive = growth rescue; active means well fitted rising curve with a large enough effect; inconclusive means small, poorly fitted or top-dose-only effect; inactive means no such curve, though single readings can be large or run the other way; further: 0% is about no effect; nearly all actives have a fitted effect of over 55% in size; growth read by luminescence after 48 h
2A StopGo: FMDV 2A StopGo reporter, luciferase signal; human cells with a luciferase reporter of 2A StopGo recoding; control for the full effect not named in the record; Potency, µM (titrated, usually from 57.9 µM), for the others: top-dose signal change, negative = less light; actives 1.2% (n = 410,000); AID 1159524; active = well fitted falling curve with a large enough effect; inconclusive = small, poorly fitted or top-dose-only effect; inactive = no such curve, though single readings can be large or run the other way; tested in HEK293T cells; further: on the % scale 0 is the no-effect control and ±100 the full control effect; nearly all actives have a fitted effect of over 45% in size; luciferase light after 4 h
LASV entry inh: inhibitors of Lassa virus binding or cell entry; Lassa virus pseudotype entry inhibition, cell reporter; control for the full effect not named in the record; Potency, µM (highest dose often 37.9 µM), without a hit: top-dose activity change, negative = inhibition, hits mostly inhibitors; actives 1.2% (n = 300,000); active means well fitted inhibition curve with a large enough effect; inconclusive means small, poorly fitted or top-dose-only effect, or effect the other way; inactive means flat fitted curve, though single readings scatter; tested in HEK293 cells; further: on the % scale 0 is the no-effect control and ±100 the full control effect; nearly all actives have a fitted effect of over 50% in size; luciferase read-out
RE007 growth inh: less growth of the S. pombe RE007 Vpr strain. AID 651644. actives 0.21% (n = 360,000). Potency, µM (series often up to 92.2 µM), without a hit: top-dose activity change, negative = less growth. S. pombe RE007 Vpr strain, BacTiter-Glo ATP luminescence, 24 h; control for the full effect not named in the record; active = well fitted falling curve with a large enough effect; inconclusive = small, poorly fitted or top-dose-only effect; inactive = no such curve, though single readings can be large or run the other way;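 further: on the % scale 0 is the no-effect control and ±100 the full control effect; nearly all actives have a fitted effect of over 50% in size; the assay follows cell death caused by Vpr and the record does not say whether a fall means rescue or toxicity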
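Fission yeast RE007 carrying one integrated HIV-1 vpr copy, seeded at OD 0.01 in PMG+AL medium with 23 nL pinned compound. Grown 24 h at 30 degrees; viability read by BacTiter-Glo luminescence after 5 min.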
Cruzain inh noDet: inhibitors of Trypanosoma cruzi cruzain without detergent; P25779; purified cruzain, Z-FR-AMC fluorescence, no detergent; Potency, µM, for the others: max response, negative = inhibition, most hits filed as inhibitors; actives 2.3% (n = 200,000); AID 1476;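 further: plate controls were enzyme without inhibitor for no effect and buffer without enzyme for full effect; nearly all actives have a fitted effect of over 40% in size; top concentration of the series not given in the record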
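Purified cruzain at 1.5 nM, pre-incubated 15 min with compound at room temperature in 100 mM sodium acetate pH 5.5, 5 mM DTT, 0.00005% Triton X-100. Reaction started with 2 uM Z-FR-AMC; AMC fluorescence increase over 60 s gives rate.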
* = called active by the depositor; u = inconclusive; x = not tested or not shown; & = joins results of further samples; [ ] = dose if it differs, or a comment. Unless noted, the call rests on the fitted dose curve; in most records, active means well fitted curve in the direction sought with a large enough effect; inconclusive means small, poorly fitted or top-dose-only effect, or another doubt; inactive means no such curve, though single readings can be large; an effect the other way counts as inactive or inconclusive. Potency means the concentration at half of the fitted maximal effect.

SMILES | MARV entry inh | Cruzain Triton | NS1 function inh | SARS PLpro yeast | 2A StopGo | LASV entry inh | RE007 growth inh | Cruzain inh noDet
COc1ccc(-c2cccc(-c3cc(=O)oc4cc5c(cc34)OCO5)c2)cc1 | x | 4.0% | x | 18% | -2% | x | -5% | u
COc1ccc(C(=O)COC(=O)c2ccc3ccccc3n2)cc1 | u | -8.9% | -37% | -43% | -14% | 25% | u | 4%
CCN(CCCNC(=O)C1CCC(=O)N1Cc1ccccc1Cl)c1cccc(C)c1 (stereo not given) | u | 2.3% | -5% | 2% | -7% | u | -3% | 27%
CC(C)(C)c1ccc(-c2nnc3sc(-c4ccccn4)nn23)cc1 | x | -4.6% | 1% | -5% | 15% | x | 9% | -7%
COC(=O)c1ccc(Cn2cc(Cl)cn2)o1 | 15%[46.1 µM] | x | 0% | 0% | -7% | 17% | 1% | x
Cn1c(=S)[nH]c2[nH]c(=O)cnc2c1=O | 11% | -4.8% | 19% | 2% | -1% | 1% | 4% | 4%
O=C(COc1ccc(Br)cc1)N(CCO)CCO | u | x | -3% | 1% | 1% | -9% | -17% | x
Cc1ccc(S(=O)(=O)N2CCOCC2)cc1C(=O)N1C(=O)c2cccc(N)c2C1=O | -4% | -2.1% | 2% | -4% | 0% | -8% | -17% | -12%
CC(=O)Nc1ccc(NC(=O)CSC2=NS(=O)(=O)c3cc(Cl)ccc3N2)cc1 | -8% | x | x | -1% | -17% | 15% | 3% | x
N#Cc1ccc(OCc2nnc(-c3ccc([N+](=O)[O-])cc3)o2)cc1 | -5%[46.1 µM] | x | 1% | -3% | u | u | -22% | x
CCOC(=O)c1c(NC(=O)c2ccccc2Cl)sc2c1CCc1ccccc1-2 | 12%&12% | -13% | 12% | -6% | u | -10% | -30% | u
CCOC(=O)N1CCN(CC(O)COc2ccccc2C(C)(C)C)CC1 (stereo not given) | u | 1.1% | -6% | -10% | -19% | -14% | -5% | -5%
CCOc1ccc(NC(=S)NC(=O)/C=C/c2ccco2)cc1 | u | x | 12% | 7% | 12% | -8% | -7% | x
O=C(O)CCc1nn2c3ccccc3n(CC(=O)O)c2nc1=O | 17%[46.1 µM] | x | x | -1% | -2% | 3% | -6% | x
CN(Cc1nc2ccccc2c(=O)[nH]1)C(=O)c1cccc(NC(=O)c2cccs2)c1 | -21% | x | x | -3% | -24% | -17% | 14% | x
CN(Cc1nc(-c2cccc(Cl)c2)no1)C1CCOCC1 | x | x | 1% | 1% | 42%[activator] | x | 0% | x
O=C(O)CC(Cc1ccc(Cl)cc1)C(=O)NCC12CC3CC(CC(C3)C1)C2 (stereo not given) | x | x | 0% | 0% | -3% | x | -12% | x
CC(C)(C)CC(=O)NC(=S)NCc1ccccc1 | x | x | 4% | 0% | 1% | x | -5% | x
Cc1nc2ccc(S(=O)(=O)NC(C(=O)NCc3ccc(Cl)cc3)C(C)C)cc2s1 (stereo not given) | 8%[46.1 µM] | -1.9% | x | x | -5% | -11%[46.1 µM] | x | -18%
COc1ccc(N2C(=O)CCC2=O)cc1 | -15% | 0.8% | 3% | 4% | -7% | 0% | 5% | 4%
CC(NC(=O)CCl)c1ccc(Cl)c(Cl)c1 (stereo not given) | u | 3.2% | 2% | -3% | 0% | u | 16% | 0%
O=C(Cc1ccc(Cl)c(Cl)c1)Nc1ccc(S(=O)(=O)Nc2ncccn2)cc1 | 2%[46.1 µM] | x | -9% | 0% | 7% | 20% | 1% | x
O=C(CSc1nc2ccccc2c(=O)[nH]1)N1CCCCC1 | x | 1.9% | 0% | -9% | 25% | x | 17% | -1%
N=C1SCC(=O)N1c1ncc(Cc2ccccc2Cl)s1 | u | x | -54% | -5% | -27% | u | u | x
CC(=O)NC12CC3CC(C1)CC(C(=O)N1CCN(S(=O)(=O)c4ccccc4C#N)CC1)(C3)C2 | u | x | x | x | -10% | 2% | -12% | x
CCCCCCC(=O)N1CCCC(c2nc(-c3cccc(OC)c3)no2)C1 (stereo not given) | -23%[46.1 µM] | x | -58% | -1% | -23% | -11% | -6% | x
O=C(Cn1c(=O)nc(-c2ccccc2)c2ccccc21)N1CCN(c2ccc(F)cc2)CC1 | x | -1.2% | x | x | 34% | 14%[46.1 µM] | x | -2%
Cc1ccc(NC(=O)C2CCCN(C(=O)c3ccc(Cl)cc3)C2)cc1C (stereo not given) | u | x | x | -12% | 18% | u | -16% | x
FC(F)(F)c1ccc(CN2C[C@@H]3C(c4ccccc4)C4(c5cccnc5)CC3(C4)[C@H]2c2ccccc2)cc1 (stereo not given in full) | x | 0.4% | 1% | -7% | u | x | -19% | -2%
O=c1cc(-c2ccc(O)c(-c3c(O)cc(O)c4c(=O)cc(-c5ccc(O)cc5)oc34)c2)oc2cc(O)cc(O)c12 | 1% | -13% | 10µM* | 4% | 4% | 1% | 89% | -12%
CCOC(=O)N1CCN(C(=O)c2ccc(N(Cc3ccccc3Cl)S(C)(=O)=O)cc2)CC1 | -14%[46.1 µM] | x | -7% | 1% | -5% | u | -4% | x
CCCS(=O)(=O)c1c(S(=O)(=O)CCC)c2cc(C(C)(C)C)ccn2c1C(=O)c1ccccc1 | u | -4.3% | x | x | u | u | x | -1%
COC(=O)c1cc(=O)c2c([N+](=O)[O-])ccc(OC)c2o1 | -15% | 0.2% | -10% | 19% | -1% | 2% | -4% | 6%
NC(=O)CSc1nnc(-c2ccncc2)o1 | 14% | x | 1% | 1% | -21% | 16% | 6% | x
COc1ccc(Cc2c(O)nc[nH]c2=O)cc1 | -2% | -6.4% | u | 1% | 20% | -1% | 9% | -4%
COCCN(Cc1ccccc1)C(=O)c1c(C)nn(-c2ccccc2)c1C | -17%[46.1 µM] | x | x | 1% | -1% | -8%[46.1 µM] | 1% | x
CCN(c1ccc(OC)cc1)S(=O)(=O)c1ccc2c(c1)NC(=O)CS2 | x | x | 10% | u | -6% | x | 2% | x
CCCCCCCC(=O)OCC(=O)[C@@]1(O)CC[C@H]2[C@@H]3CCC4=CC(=O)CC[C@]4(C)[C@H]3[C@@H](O)C[C@@]21C | 2% | -6.9% | 5% | -35% | -8% | -1% | -6% | -4%
C[C@H]1C(=O)N(C)CCN1C(=O)c1ccccc1OC1CCN(S(C)(=O)=O)CC1 | u | x | -4% | -1% | 24% | -5%[46.1 µM] | 4% | x
Cc1cc(C(=O)OCC(=O)N2C(C)CCCC2C)c(C)o1 (stereo not given) | u | 2.3% | -5% | -2% | -3% | 7% | -27% | 15%

Limited to SARS PLpro yeast and LASV entry inh, for 3 of the compounds above:
SMILES	SARS PLpro yeast	LASV entry inh
CCCS(=O)(=O)c1c(S(=O)(=O)CCC)c2cc(C(C)(C)C)ccn2c1C(=O)c1ccccc1	x	u
COC(=O)c1cc(=O)c2c([N+](=O)[O-])ccc(OC)c2o1	19%	2%
NC(=O)CSc1nnc(-c2ccncc2)o1	1%	16%

(continued)
SMILES | MARV entry inh | Cruzain Triton | NS1 function inh | SARS PLpro yeast | 2A StopGo | LASV entry inh | RE007 growth inh | Cruzain inh noDet
CCOc1ccccc1CNC(=O)CCCc1cn(C)c2ccccc12 | -5% | -2.9% | -58% | -11% | -26% | -16% | 7% | 2%
COc1ccccc1CNC(=O)/C(C#N)=C/c1ccc(OC)c(OC)c1OC | x | x | 0% | 1% | u | x | 7% | x
Cc1ccccc1N1C(=O)C2C3C=CC(C2C1=O)N(C)C3=O (stereo not given) | -25% | 1.7% | 0% | -1% | -11% | u | 0% | 7%
Cc1ccc(Cn2cnc3sc4c(c3c2=O)CCC4)c(C)c1 | 2% | -8.5% | 0% | 0% | -21% | 9% | -7% | -14%
Cc1cccc(C(=O)NC(=S)N(C)C2CCCCC2)c1 | -21%[46.1 µM] | x | -55% | 5% | 15% | 18%[46.1 µM] | -12% | x
CCN1C(=O)c2ccccc2S(=O)(=O)c2ccc(C(=O)NCc3ccccc3OC)cc21 | -1%[46.1 µM] | 2.5% | x | x | -19% | -22%[46.1 µM] | x | 3%
CC1C(=O)N(Cc2ccc([N+](=O)[O-])cc2)c2ccccc2N1C(=O)c1c(F)cccc1F (stereo not given) | u | x | 2% | -2% | 35µM* | u | 9% | x
COc1ccc2[nH]c(=O)c(CN(C(=O)C3CCCO3)c3cccc(C)c3)cc2c1 (stereo not given) | x | 4.7% | -32% | 1% | x | x | x | 2%
COc1ccc(N2CCN(C(=O)NCc3ccc(OC)c(OC)c3)CC2)cc1 | -10%[46.1 µM] | x | -12% | -1% | 2% | x | 15% | x
COc1cc(C(C(=O)NC(C)(C)C)N(Cc2ccc3c(c2)OCO3)C(=O)c2cnccn2)cc(OC)c1OC (stereo not given) | 5% | 8.7% | -6% | 7% | x | 8% | 7% | 20%

Taken from above:
Cruzain inh noDet with Cc1ccc(Cn2cnc3sc4c(c3c2=O)CCC4)c(C)c1 reads -14%
SARS PLpro yeast with COc1ccccc1CNC(=O)/C(C#N)=C/c1ccc(OC)c(OC)c1OC reads 1%
NS1 function inh with Cc1ccccc1N1C(=O)C2C3C=CC(C2C1=O)N(C)C3=O (stereo not given) reads 0%
RE007 growth inh with COc1cc(C(C(=O)NC(C)(C)C)N(Cc2ccc3c(c2)OCO3)C(=O)c2cnccn2)cc(OC)c1OC (stereo not given) reads 7%
NS1 function inh with CCOc1ccccc1CNC(=O)CCCc1cn(C)c2ccccc12 reads -58%
2A StopGo with CC1C(=O)N(Cc2ccc([N+](=O)[O-])cc2)c2ccccc2N1C(=O)c1c(F)cccc1F (stereo not given) reads 35µM*
Cruzain inh noDet with CCN1C(=O)c2ccccc2S(=O)(=O)c2ccc(C(=O)NCc3ccccc3OC)cc21 reads 3%

Assay outcomes: PubChem, National Center for Advancing Translational Sciences (NCATS)
